# E coli growth: E. coli growth inhibition, primary screen, OD600; 0.21% of 330,000 active; OD600 absorbance (no concentration beside the values); AID 1053175, 2014; Escherichia coli growth, 23 h; hits give low values;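 active means OD600 absorbance below the run mean of sample wells minus 3.6 SD, in any replicate, cut at about 0.56 in these data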;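 further: stock transfer was 300 nL into about 60 µL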
# Starred values were filed as active, the others as inactive; & = joins results of further samples. The list is partial (hit frequency here may not be typical).
SMILES,E coli growth
Cc1[nH]n(-c2ccccc2)c(=O)c1C=NNC(=O)C1COc2ccccc2O1 (stereo unspecified),0.67
COc1cccc(C=NNc2cc(-n3nc(C)cc3-c3ccccc3)ncn2)c1O,0.72
Cc1ccc(S(=O)(=O)Nc2ccc(Br)cc2C=Nn2cnnc2)cc1,0.67
CC(C)C(CSc1ccccc1)N1CCN(Cc2ccccc2)CCC1=O (stereo unspecified),0.68
O=C(NC1CCC(=O)N(C(CSc2ccc(Br)cc2)Cc2ccccc2)CC1)OCc1ccccc1 (stereo unspecified),0.7
COc1cc(C=NNC(=Nc2ccc(C)cc2)c2nc3ccccc3s2)ccc1O,0.73
CC(=Cc1ccc(C(=O)O)cc1)c1ccc2c(c1)C(C)(C)CCC2(C)C,0.72
Cc1ccc(NC(=O)ON=C2CCCCC2c2ccc([N+](=O)[O-])cc2[N+](=O)[O-])cc1 (stereo unspecified),0.75
Cn1cccc1C=NNC(=O)C1COc2ccc(C(C)(C)C)cc2O1 (stereo unspecified),0.69
CC(=NNC(=O)CCCOc1ccc(Cl)cc1Cl)c1ccc(C)o1,0.7
CC(NC(=O)c1[nH]cnc1C(=O)Nc1ccccc1)c1ccccc1 (stereo unspecified),0.63&0.67
COc1ccc(C=Nn2c(COc3ccccc3)n[nH]c2=S)cc1OC,0.69
COC(=O)[C@]1(Cc2ccccc2)NC(c2ccc(-c3ccc(Cl)c(Cl)c3)cc2)C2C(=O)N(C)C(=O)C21 (stereo partly specified),0.71
CC(C)c1ccc(C=Nn2c(-c3ccccc3)n[nH]c2=S)cc1,0.7
O=C(C[n+]1ccccc1)NN=Cc1ccccc1[N+](=O)[O-],0.73
CCN1CCN(Cc2ccc(NC(=O)c3ccc(C)c(NC(=O)CC4NC(=O)C(Cc5ccccc5)NC4=O)c3)cc2C(F)(F)F)CC1 (stereo unspecified),0.69
COc1cccc(C2Oc3ccc(Br)cc3C(=O)C2OC(=O)NC2CCCC2)c1 (stereo unspecified),0.71
O=C(NN=Cc1ccc(-c2ccc(Cl)c(Cl)c2)o1)C(=O)N1CCCC1,0.76
CC(C)CC(NC(=O)c1nc[nH]c1C(=O)NC(CCCCN)C(=O)OC(C)(C)C)C(=O)OC(C)(C)C (stereo unspecified),0.67
CC(=NNc1cccc(C(=O)O)c1)c1cc2ccccc2o1,0.69
CCc1ccc(NC(=O)C(=O)NN=C(C)CC(=O)NCCOC)cc1,0.67
O=C(NN=Cc1ccc(Br)cc1)c1cc[n+]([O-])cc1,0.68
CC(=O)N1C(C)C=C[C@]1(Cc1ccccc1)C(=O)O (stereo partly specified),0.68
C=C1CCN(C(C(=O)NCc2ccccc2)C(C)C)S(=O)(=O)c2ccccc21 (stereo unspecified),0.7
COc1cc(OC)cc(C(=O)NC(C(=O)OCC(=O)Nc2ccc(C(N)=O)cc2)C(C)C)c1 (stereo unspecified),0.7

# Retrieved by compound from the entries so far:
SMILES,E coli growth
Cc1[nH]n(-c2ccccc2)c(=O)c1C=NNC(=O)C1COc2ccccc2O1 (stereo unspecified),0.67
COC(=O)[C@]1(Cc2ccccc2)NC(c2ccc(-c3ccc(Cl)c(Cl)c3)cc2)C2C(=O)N(C)C(=O)C21 (stereo partly specified),0.71

# Further results follow.
SMILES,E coli growth
O=C1C=C(c2cccc(Cl)c2O)CC(c2ccc(F)cc2)C1 (stereo unspecified),0.66
NC(=O)C1CC2(CC(c3cccc(NC(=O)COc4ccc(Cl)cc4)c3)=NO2)CN1C(=O)COc1ccc(Cl)cc1 (stereo unspecified),0.69
Cc1cc(C)nc(NN=C2CCSc3ccc(F)cc32)n1,0.7
CCN1CC2C3C(=O)N(Cc4ccccc4)C(=O)C3[C@](Cc3ccccc3)(C1=O)N2C(=O)c1ccc(C(C)(C)C)cc1 (stereo partly specified),0.68
CC(=NNC(=O)Cc1cccc2ccccc12)c1cccs1,0.72
Cc1ccc(C=NNc2nnc(Cl)c3ccccc23)cc1,0.73
CC(=NNC=O)c1ccncc1,0.66
O=[N+]([O-])c1cc2c(cc1C=Nn1c(-c3ccccc3)n[nH]c1=S)OCO2,0.75
CCN(CC)C(=O)COc1ccc(C=NNC(=O)c2cc(-c3ccccc3OC)nc3ccccc23)cc1OC,0.68
CCn1cc(C=NNC(=O)c2ccc(C#N)cc2F)c2ccccc21,0.72
CCOC(=O)C1=C(N)n2c(sc(=Cc3cccs3)c2=O)=C(C(=O)OCC)C1c1cccs1 (stereo unspecified),0.74
CN(CCCNC(=O)c1ccc(C=NO)nc1)CCCN(C)Cc1ccccc1,0.69
CC1CCC[C@]2(CC(=O)c3cc(F)ccc3O2)C1 (stereo partly specified),0.69
O=C(NN=Cc1cn(-c2cccs2)nc1-c1ccccc1)c1ccccc1O,0.68
COc1cc(C=NNC(=O)C2=NNC(=O)C2C)ccc1O (stereo unspecified),0.7
NC(=S)NN=Cc1cccc(Br)c1,0.69
COc1ccc(CC(=NOC(C)=O)c2ccc(OC)cc2)cc1,0.7
CCC(=O)NN=Cc1ccc(OS(=O)(=O)c2ccccc2)cc1,0.65
COc1cc(C=NNC(=O)CCc2ccccc2)ccc1O,0.68
CC(=NNC(=S)NC1CCCCC1)c1ccc(Cl)c(Cl)c1,0.76
COc1cc(C=NNC(=O)CNC(=O)C2COc3ccccc3O2)ccc1O (stereo unspecified),0.66
CCN1CC2C3C(=O)N(C)C(=O)C3[C@](CC)(C1=O)N2C(=O)c1ccc(Cl)cc1 (stereo partly specified),0.67
O=C(NN=Cc1ccc(O)cc1)c1cncc(Br)c1,0.7
C#CCNC(=O)C1=CC(c2ccc(C#C)cc2)CC(OCc2ccc(CO)cc2)O1 (stereo unspecified),0.66&0.7
CCOC(=O)C1C2COc3ccccc3C2N2C(=O)N(c3ccc(Br)cc3)C(=O)[C@]12C (stereo partly specified),0.7

# Compounds listed so far that have a thiophene ring, fused or not, in the order listed:
SMILES,E coli growth
CC(=NNC(=O)Cc1cccc2ccccc12)c1cccs1,0.72
CCOC(=O)C1=C(N)n2c(sc(=Cc3cccs3)c2=O)=C(C(=O)OCC)C1c1cccs1 (stereo unspecified),0.74
O=C(NN=Cc1cn(-c2cccs2)nc1-c1ccccc1)c1ccccc1O,0.68

# Carrying on.
SMILES,E coli growth
C(=NNc1nn2cnnc2c2ccccc12)c1ccco1,0.68
O=C(CC1SC(=NN=Cc2ccco2)NC1=O)Nc1cccc(Cl)c1Cl (stereo unspecified),0.69
COC(=O)NN=Cc1cc(Cl)c(OCc2ccc(F)cc2)c(OC)c1,0.66
COc1cc(C=NNc2ccc(Cl)cc2)ccc1OC(=O)c1cccs1,0.7
COc1cc(C(C)=NNC(=O)CSc2nncn2C)ccc1OCc1ccccc1Cl,0.68
O=C(Cc1ccccc1)NN=Cc1ccc(OCC(=O)Nc2ccccc2)cc1,0.78
CCOc1[nH]c(N=Cc2ccco2)c(C#N)c1C#N,0.74
CC1SC(=NN=C2CCC(C(C)(C)C)CC2)NC1=O (stereo unspecified),0.7
Cc1snc(S(=O)(=O)C(C#N)=NNc2ccccc2)c1C#N,0.71
CC(=NNC(=O)CNC(=O)C(c1ccccc1)c1ccccc1)c1ccccc1,0.69
CCCC=C1CCCOC(C(=O)NCCN2CCOCC2)(C(F)(F)F)C1 (stereo unspecified),0.71
CN=c1scc(-c2cc(OC)ccc2OC)n1N=Cc1c(C)[nH]c2ccccc12,0.7
Cn1cccc1C=C1SC(=O)N(c2ccccc2)C1=O,0.69
O=C(O)c1ccc(NN=Cc2cn(Cc3ccccc3F)c3ccccc23)cc1,0.68
Cc1cccc(N=Cc2c(O)ccc3oc4c(c23)CCCC4)n1,0.68
CC1(C)Oc2ccc3ccc(=O)oc3c2CC1OC1OC(CO)C(O)C(O)C1O (stereo unspecified),0.68
COc1ccc(OC)c(NC(=O)C(=O)NN=C(C)CC(=O)Nc2ccc(Cl)cn2)c1,0.7
S=c1[nH]nc(COc2ccccc2)n1N=Cc1ccccc1Cl,0.69
S=c1[nH]nc(C2CCCCC2)n1N=Cc1ccc(Br)s1,0.74
CC(=NNC(=O)c1ccccn1)c1ccncc1,0.69
CC1=CC(=NOC(=O)/C=C/c2ccccc2)C(C)=CC1=O,0.68
C(=NNc1nc(Nc2ccccc2)nc(Nc2ccccc2)n1)c1cccnc1,0.72
O=C(CN1CCSCC1)NN=Cc1ccccc1F,0.65
CCOC(=O)C1=CCC(c2cccc(C)c2)N(S(=O)(=O)c2ccc(C)cc2)C1C(=O)OCC (stereo unspecified),0.7
O=c1ccn(C2OC(CO)C(O)C2O)c(=O)[nH]1 (stereo unspecified),0.68

# Next part, starting with the last 4 of the part before.
SMILES,E coli growth
C(=NNc1nc(Nc2ccccc2)nc(Nc2ccccc2)n1)c1cccnc1,0.72
O=C(CN1CCSCC1)NN=Cc1ccccc1F,0.65
CCOC(=O)C1=CCC(c2cccc(C)c2)N(S(=O)(=O)c2ccc(C)cc2)C1C(=O)OCC (stereo unspecified),0.7
O=c1ccn(C2OC(CO)C(O)C2O)c(=O)[nH]1 (stereo unspecified),0.68
N#CC(=NNc1cccc(F)c1)C(=N)N1CCCCCC1,0.71
O=C(NC1CC(=NO)c2cc3c(cc21)OCO3)C(F)(F)F (stereo unspecified),0.7
CCCCc1n[nH]c2c1C(=NO)CC(c1ccccc1)C2 (stereo unspecified),0.69
Cc1ccc(C=NNC(=O)c2ccccn2)o1,0.69
CCC1CCCC1=NNC(=O)c1ccc(Cl)cc1 (stereo unspecified),0.69
Cc1nnsc1C(=O)NN=Cc1ccc(OC(F)(F)F)cc1,0.71
CNC(=O)C1CCN(S(=O)(=O)c2c(C)noc2C=Cc2ccc(C)cc2)CC1,0.72
COC(=O)[C@]12C(=O)NCC(CN1c1ccc(C(F)(F)F)cc1)N2C,0.71
CCCCCC=CCC(O)C=Cc1cccc(CC(O)CCCCO)n1 (stereo unspecified),0.67
NC(=O)c1cc2ccccc2oc1=NNC(=O)c1cccc(F)c1,0.67
CC(=O)Nc1ccc(C(C)=NNC(=O)c2ccc(COc3ccccc3Cl)o2)cc1,0.7
CC(COc1ccccc1)=NNC(=O)c1nnn(-c2nonc2N)c1CSc1ccccc1,0.72
C=CCOC(=O)C1=CC(c2ccc3c(c2)OCO3)CC(OCc2ccc(CO)cc2)O1 (stereo unspecified),0.66
Cc1cc(C(=O)NN=Cc2c(CO)cnc(C)c2O)c2ccccc2n1,0.69
O=C(NN=Cc1ccc(COc2ccc([N+](=O)[O-])cc2)o1)c1cccc(Cl)c1,0.7
CC1(C)C(c2cccs2)=[N+]([O-])C2(CCCCCC2=NNC(N)=O)N1O (stereo unspecified),0.71
Cc1cc(C=NNc2nc(N3CCOCC3)nc(N3CCOCC3)n2)c(C)n1-c1ccccc1,0.68
CCOc1cc(C=NNC(=O)c2cc3c(ccc4ccccc43)o2)ccc1O,0.72
CCCC=NNC(=O)c1cc(Br)ccc1O,0.62
COc1cccc(C=Nn2c(C3CCCCC3)n[nH]c2=S)c1OC,0.66
CCC1=C(OC(=O)N(CC)CC)N2C(=O)OC(=NCC3CC3)[C@]2(C)C2C1=CCC1C(=O)NC(=O)C12 (stereo partly specified),0.64
O=C(COc1ccc(C=NNC(=O)C(=O)N2CCCCC2)cc1)Nc1ccccc1Cl,0.67
CCN1CC2C3C(=O)N(C)C(=O)C3[C@](Cc3ccccc3)(C1=O)N2C(=O)c1ccc(Cl)c(Cl)c1 (stereo partly specified),0.68
O=C(NN=Cc1ccccn1)c1cc(Br)ccc1O,0.6
CCc1n[nH]c(=S)n1N=Cc1cc(Br)c(O)c(OC)c1,0.65

# 4 structures out of the list, arranged by SMILES length, smallest number first:
SMILES,E coli growth
CCCC=NNC(=O)c1cc(Br)ccc1O,0.62
N#CC(=NNc1cccc(F)c1)C(=N)N1CCCCCC1,0.71
Cc1nnsc1C(=O)NN=Cc1ccc(OC(F)(F)F)cc1,0.71
O=C(NN=Cc1ccc(COc2ccc([N+](=O)[O-])cc2)o1)c1cccc(Cl)c1,0.7

# Further records.
SMILES,E coli growth
CN1CC2C(c3ccccc3)C3(c4ccccc4)CC2(C3)C1c1ccccc1 (stereo unspecified),0.69
Cc1ccc(C(=O)NC(=Cc2ccccc2)C(=O)NCC2CCCO2)cc1 (stereo unspecified),0.7
O=C(CCc1nc2ccccc2[nH]c1=O)NN=Cc1ccccc1,0.67
N#Cc1c(N=Cc2cc3ccccc3s2)sc2c1CCC2,0.71
CC(=NNC(=O)CC1N=C(Cc2ccccc2)NNC1=O)c1ccccc1 (stereo unspecified),0.73
COCCCn1c(O)c(/C=C2/N=C(C#N)C(=Nc3ccc(C)cc3)O2)sc1=S,0.68
COc1ccccc1C=NNc1cc(C)nc(N2CCOCC2)n1,0.64
Cc1noc(C)c1NC(=O)Nc1ccc2c(c1)C(=O)N(C(C)CO)CC(C)C(CN(C)S(C)(=O)=O)O2 (stereo unspecified),0.65
CC(C)NC(=S)NN=C1CCCCc2ccccc21,0.64
Cc1[nH]c2ccccc2c1C=NNC(=O)CNC(=O)c1ccc2c(c1)OCO2,0.67
NC(CC(=O)NCCOc1ccccc1)=NO,0.71
COC(=O)c1cnn(-c2ccccc2)c1C=NNC(=S)Nc1ccccc1,0.66
Cc1noc(C)c1S(=O)(=O)Nc1ccc2c(c1)CC(=O)N(C(C)CO)CC(C)C(CN(C)CC1CC1)O2 (stereo unspecified),0.69
CC(CC(=O)Nc1ccccn1)=NNC(=O)c1cccc(C)c1,0.71
Cc1nc2ccc(C(=O)NN=Cc3ccccc3O)cc2[nH]1,0.69
CC(CC(=O)Nc1cc(Cl)ccc1C)=NNC(N)=O,0.67
CCOc1ccc(C(=O)NN=Cc2cccc3cccnc23)cc1,0.71
CC(C)(C)OC(=O)NCCCCC(NC(=O)c1nc[nH]c1C(=O)N1CCN(c2ccccc2)CC1)C(=O)OC(C)(C)C (stereo unspecified),0.7
CC(=O)C1C(CCc2ccccc2)NC(=O)N(Cc2ccccc2)C1C (stereo unspecified),0.68
CC(C)(C)OC(=O)C(Cc1ccccc1)NC(=O)c1nc[nH]c1C(=O)NC(Cc1ccccc1)C(=O)OC(C)(C)C (stereo unspecified),0.71
COc1ccc(C=NNC(=O)c2ccc(Cl)cc2Cl)cc1COC(C)=O,0.68
O=C(NN=Cc1ccccc1O)/C(=C/c1ccccc1)CCO,0.71
